# Vaccinia stage – Vaccinia orthopox stage-specific inhibition; Vaccinia-infected cells, mCherry/Venus stage reporter fluorescence; stronger effect = lower value; some inactives read as strong as hits; activity change (mCherry), % (no concentration beside the values); hit rate 0.01% among 89,000;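 active = mCherry past -33% and 40 or more points under the early reporter, replicates agreeing; inconclusive = past -33% without that gap or agreement; tested in A549 cells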;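 note: scaled between vehicle wells and reference inhibitor wells; 23 nL library stock went into each well; one replicate is shown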
# Vaccinia stage Venus – second read-out of Vaccinia stage, no call of its own (marks repeat the call); activity change (Venus), %; measured here: Venus reporter, other viral stage;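 negative = less Venus signal; first of two replicates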
# The depositor's hits bear a star; ? = inconclusive; . = no result given; & = joins results of further samples. The list is partial (hit frequency here may not be typical).
# Results follow in this order: Vaccinia stage	Vaccinia stage Venus
C/C=C/c1ccc([C@H]2[C@@H](CO)N3C(=O)CN(C(=O)Nc4ccc(OC)cc4)C[C@@H]23)cc1
  -19	-14
COCC(=O)N(C)C[C@H]1Oc2cc(-c3cccc(F)c3)ccc2S(=O)(=O)N([C@H](C)CO)C[C@H]1C
  1	5
O=C(NCC1CCCCC1)[C@H]1[C@H](CO)[C@H]2Cn3c(ccc(-c4ccccc4F)c3=O)[C@@H]1N2
  -10	0
C[C@@H]1CN([C@@H](C)CO)C(=O)c2ccccc2-c2ccccc2CO[C@H]1CN(C)S(=O)(=O)c1cccs1
  -4	-9
Cc1ccc(S(=O)(=O)Nc2ccc3c(c2)C(=O)N([C@H](C)CO)C[C@H](C)[C@H](CN(C)CC2CCCCC2)OCCCC[C@@H](C)O3)cc1
  -23	-24
C[C@@H]1CN([C@H](C)CO)C(=O)c2cccc(NC(=O)Nc3cccc4ccccc34)c2O[C@@H]1CN(C)S(=O)(=O)c1ccccc1
  -22	-20
O=C(C[C@@H]1CC[C@H]2[C@@H](COC[C@H](O)CN2Cc2nccs2)O1)NCc1ccc(Oc2ccccc2)cc1
  -29	-21
CCCNC(=O)N1[C@H](CO)[C@@H](c2ccccc2)[C@@H]1CNC(=O)c1ccccc1
  8	4
C[C@H]1CN([C@@H](C)CO)C(=O)Cc2cc(NS(C)(=O)=O)ccc2O[C@@H]1CN(C)Cc1ccc(Oc2ccccc2)cc1
  0	-11
CO[C@H]1CN(C)C(=O)c2ccc(NS(=O)(=O)CC(F)(F)F)cc2OC[C@@H](C)N(Cc2nccs2)C[C@H]1C
  10	11
CCCNC(=O)[C@H]1[C@H](CO)[C@H]2Cn3c(ccc(-c4ccccc4F)c3=O)[C@H]2N1C(=O)CC
  -1	-3
COCCNC(=O)C[C@H]1CC[C@H]2[C@@H](COc3ccc(NC(=O)C4CCCC4)cc3C(=O)N2C)O1
  16	15
Cc1cc(C(=O)Nc2ccc3c(c2)C(=O)N(C)[C@@H]2CC[C@@H](CC(=O)NC4CCCC4)O[C@@H]2CO3)no1
  8	8
O=C(c1cccnc1)N1CC2(C1)[C@H](c1ccccc1)[C@H](CO)N2C(=O)CC1CC1
  11	11
CCOC(=O)N(C)C[C@H]1OCc2ccccc2-c2ccccc2C(=O)N([C@@H](C)CO)C[C@@H]1C
  33	30
COc1ccc(S(=O)(=O)N[C@@H]2CC[C@H](CC(=O)NCCc3ccccc3)O[C@H]2CO)cc1
  -1	-5
COc1ccc(-c2ccc([C@H]3[C@H](CO)N4C(=O)CN(C(=O)c5ccccc5)C[C@@H]34)cc2)cc1
  9	0
Cn1cnc(S(=O)(=O)N2CCCCN3[C@H](CO)[C@H](c4ccc(-c5ccccc5F)cc4)[C@H]3C2)c1
  -5	-7
COCC(=O)Nc1ccc2c(c1)[C@@H]1C[C@@H](CC(=O)N3CCOCC3)O[C@H](CO)[C@@H]1O2
  4	18
CN(C)C(=O)c1cccc(-c2ccc([C@H]3[C@@H](CO)N4CCCCN(CC5CCOCC5)C[C@H]34)cc2)c1
  16	14
C[C@@H]1CN([C@H](C)CO)C(=O)c2cc(-c3ccccc3F)cnc2O[C@H]1CN(C)C(=O)C1CCCCC1
  4	1
CN1C(=O)c2cc(NC(=O)C3CC3)ccc2OC[C@@H]2O[C@H](CC(=O)NC3CCC3)CC[C@H]21
  6	-10
COc1ccccc1S(=O)(=O)N(C)C[C@H]1OCc2cn(nn2)CCCC(=O)N([C@H](C)CO)C[C@@H]1C
  10&7	10&5
C[C@@H]1CN([C@@H](C)CO)C(=O)c2cc(NC(=O)Cn3cnnn3)ccc2O[C@@H]1CN(C)Cc1ccc(Oc2ccccc2)cc1
  -7	-2
COC(=O)[C@@]1(Cc2ccccc2)N=C(c2ccc(OCCCO)cc2)O[C@H]1c1ccccc1
  ?	.
O=C(Nc1cc(F)ccc1F)N1CC(=O)N2[C@H](C1)[C@H](c1ccc(-c3ccccc3)cc1)[C@@H]2CO
  34	28
C[C@H](O)C#Cc1ccc2c(c1)O[C@@H](CN(C)C(=O)C1CCCCC1)[C@H](C)CN([C@H](C)CO)S2(=O)=O
  -6	7
Cc1noc(C)c1NC(=O)Nc1ccc2c(c1)C(=O)N([C@@H](C)CO)C[C@H](C)[C@H](CN(C)Cc1ccncc1)OCCCC[C@H](C)O2
  8	0
COc1ccccc1NC(=O)N1CCCCN2[C@@H](CO)[C@H](c3ccc(C#CC4CCCC4)cc3)[C@@H]2C1
  ?	.
C[C@H]1CN([C@@H](C)CO)C(=O)c2cccc(NS(=O)(=O)c3cccs3)c2O[C@@H]1CN(C)Cc1ccncc1
  21	12
O=C(Cc1ccccn1)NCC[C@@H]1CC[C@@H](NS(=O)(=O)c2ccccc2)[C@@H](CO)O1
  9	4
Cc1noc(C)c1S(=O)(=O)N(C)C[C@@H]1Oc2ccc(NS(=O)(=O)c3cn(C)cn3)cc2CC(=O)N([C@@H](C)CO)C[C@H]1C
  -14	-4
N#C[C@@H]1[C@H](c2ccccc2)[C@@H](CO)N1C(=O)CN1CCOCC1
  5	6
CCCNC(=O)N(C)C[C@@H]1Oc2ncc(C#CC(C)C)cc2C(=O)N([C@H](C)CO)C[C@H]1C
  1	-1
CN(C)CC(=O)Nc1ccc2c(c1)[C@H]1C[C@@H](CC(=O)NCCN3CCCCC3)O[C@@H](CO)[C@H]1O2
  4	2
C[C@@H]1CCCCO[C@@H](CN(C)Cc2ccc(Cl)c(Cl)c2)[C@H](C)CN([C@H](C)CO)C(=O)c2cc(NC(=O)C3CCCCC3)ccc2O1
  -34	-18
O=C(Nc1ccccc1)N[C@H]1CC[C@@H](CCn2cc(C3(O)CCCC3)nn2)O[C@@H]1CO
  6	7
CC(C)CC#Cc1ccc2c(c1)O[C@@H](CN(C)C(=O)c1ccccc1F)[C@H](C)CN([C@@H](C)CO)S2(=O)=O
  ?	.
O=C(Nc1ccccc1F)N1CCCCN2[C@H](CO)[C@H](c3ccc(C#Cc4ccccc4)cc3)[C@@H]2C1
  17	8
O=C(N[C@@H]1CC[C@@H](CCNS(=O)(=O)c2cccc(Cl)c2)O[C@H]1CO)c1ccc(F)cc1
  -4	7
COc1cccc(C(=O)Nc2ccc3c(c2)C(=O)N(C)C[C@@H](OC)[C@@H](C)CN(CC2CC2)[C@@H](C)CO3)c1
  1	6
Cc1ccc(S(=O)(=O)Nc2ccc3c(c2)CC(=O)N([C@H](C)CO)C[C@@H](C)[C@H](CN(C)S(=O)(=O)c2cccs2)O3)cc1
  13	0
O=C(Nc1ccccc1F)N[C@H]1CC[C@@H](CCNC(=O)C2CC2)O[C@H]1CO
  3	-4
COCC(=O)N1[C@H](CO)[C@H](c2ccccc2)C12CN(C(=O)Nc1ccccc1F)C2
  -12	-2
C[C@H](CO)N1C[C@H](C)[C@H](CN(C)S(=O)(=O)c2ccccc2F)Oc2cc(-c3ccccc3)ccc2S1(=O)=O
  ?	.
COCC(=O)N1CCCCN2[C@H](CO)[C@H](c3ccc(C#Cc4cccnc4)cc3)[C@H]2C1
  23	15
CN(C)C(=O)c1cccc(-c2ccc([C@@H]3[C@@H](CO)N4C(=O)CN(C(=O)Cc5ccccc5)C[C@@H]34)cc2)c1
  4	-10
COc1ccc(NC(=O)Nc2ccc3c(c2)[C@H]2C[C@H](CC(=O)NCC(F)(F)F)O[C@@H](CO)[C@H]2O3)cc1
  16	16
O=C(C[C@@H]1CC[C@H]2[C@@H](COC[C@H](O)CN2C(=O)c2ccccc2F)O1)N1CCCCC1
  6	-3
CCC(=O)Nc1ccc2c(c1)C(=O)N(C)C[C@@H](OC)[C@@H](C)CN(C(=O)c1ccccc1F)[C@H](C)CO2
  21	7
O=C(C1CCCC1)N1[C@H](CO)[C@H](c2ccccc2)C12CN(CCC(F)(F)F)C2
  0	8
COCC#Cc1ccc2c(c1)O[C@H](CN(C)S(=O)(=O)c1cccc(OC)c1)[C@@H](C)CN([C@H](C)CO)S2(=O)=O
  5	-13
C[C@H](CO)N1C[C@H](C)[C@H](CN(C)S(=O)(=O)c2cccs2)Oc2ccc(NC(=O)CCCN(C)C)cc2C1=O
  19	6
CCCC#Cc1ccc([C@H]2[C@@H](CO)N3C(=O)CN(C(=O)NC4CCCC4)C[C@H]23)cc1
  2	-6
O=C(Nc1ccc(F)cc1)N1CC(=O)N2[C@@H](CO)[C@@H](c3ccc(C#Cc4cccnc4)cc3)[C@@H]2C1
  -17	-18
CN(C)CC(=O)N[C@H]1CC[C@@H](CCNC(=O)C2CCCCC2)O[C@H]1CO
  -11	-8
CCC(=O)N1[C@H](C(=O)N2CCCCC2)[C@@H](CO)[C@@H]2Cn3c(ccc(-c4cccc(F)c4)c3=O)[C@@H]21
  31	11
C[C@H]1CN([C@@H](C)CO)S(=O)(=O)c2ccc(C#CC3CC3)cc2O[C@H]1CN(C)CC1CC1
  -21	-16
COc1ccc2c3c(n(C)c2c1)[C@@H](CO)NCC31CN(Cc2ccccc2Cl)C1
  -22	-17
C[C@H](CO)N1C[C@H](C)[C@@H](CN(C)Cc2ccc(C(=O)O)cc2)OCCCC[C@H](C)Oc2ccc(NC(=O)Nc3ccc4c(c3)OCO4)cc2C1=O
  15	15

# Four of the compounds above, field by field.
COCC(=O)N1[C@H](CO)[C@H](c2ccccc2)C12CN(C(=O)Nc1ccccc1F)C2
- Vaccinia stage: -12
- Vaccinia stage Venus: -2
C[C@H](CO)N1C[C@H](C)[C@H](CN(C)S(=O)(=O)c2ccccc2F)Oc2cc(-c3ccccc3)ccc2S1(=O)=O
- Vaccinia stage: ?
- Vaccinia stage Venus: .
COCC(=O)N1CCCCN2[C@H](CO)[C@H](c3ccc(C#Cc4cccnc4)cc3)[C@H]2C1
- Vaccinia stage: 23
- Vaccinia stage Venus: 15
CN(C)C(=O)c1cccc(-c2ccc([C@@H]3[C@@H](CO)N4C(=O)CN(C(=O)Cc5ccccc5)C[C@@H]34)cc2)c1
- Vaccinia stage: 4
- Vaccinia stage Venus: -10

# A run of entries from further up, as a working copy:
# Results follow in this order: Vaccinia stage	Vaccinia stage Venus
C[C@@H]1CCCCO[C@@H](CN(C)Cc2ccc(Cl)c(Cl)c2)[C@H](C)CN([C@H](C)CO)C(=O)c2cc(NC(=O)C3CCCCC3)ccc2O1
  -34	-18
O=C(Nc1ccccc1)N[C@H]1CC[C@@H](CCn2cc(C3(O)CCCC3)nn2)O[C@@H]1CO
  6	7
CC(C)CC#Cc1ccc2c(c1)O[C@@H](CN(C)C(=O)c1ccccc1F)[C@H](C)CN([C@@H](C)CO)S2(=O)=O
  ?	.

# New compounds follow.
# Results follow in this order: Vaccinia stage	Vaccinia stage Venus
CC(=O)N[C@@H]1CC[C@H](CCNC(=O)C2CC2)O[C@@H]1CO
  6	7
C[C@H](CO)N1C[C@H](C)[C@@H](CN(C)C(=O)Cc2ccccn2)Oc2ncc(C#CC3CCCC3)cc2C1=O
  9	-8
COC(=O)[C@H]1[C@H](CO)[C@H]2Cn3c(ccc(-c4ccccc4)c3=O)[C@H]2N1Cc1ccccc1F
  -1	6
COc1ccc(NC(=O)N(C)C[C@H]2OCCCC[C@@H](C)Oc3ccc(NS(=O)(=O)c4ccc(F)cc4)cc3C(=O)N([C@H](C)CO)C[C@H]2C)cc1
  -18	-17
CNC[C@@H]1OCCCC[C@H](C)Oc2ccc(NS(=O)(=O)c3cccs3)cc2C(=O)N([C@@H](C)CO)C[C@@H]1C
  34	11
CO[C@@H]1CN(C)C(=O)c2ccc(NC(C)=O)cc2OC[C@@H](C)N(Cc2ccccc2C(=O)O)C[C@H]1C
  -1	0
COCC(=O)Nc1ccc2c(c1)OC[C@H](C)N(C(=O)c1ccncc1)C[C@H](C)[C@H](OC)CN(C)C2=O
  4	14
C[C@H]1CN([C@@H](C)CO)C(=O)c2cc(C#CC3CC3)cnc2O[C@H]1CN(C)Cc1ccncc1
  8	8
COc1cccc(-c2cnc3c(c2)C(=O)N([C@H](C)CO)C[C@@H](C)[C@H](CN(C)C(C)=O)O3)c1
  10	3
C[C@@H]1CN([C@H](C)CO)C(=O)c2cc(NC(=O)Nc3ccc4c(c3)OCO4)ccc2O[C@H]1CN(C)S(=O)(=O)c1ccccc1
  12	3
CCC(=O)N1CC(=O)N2[C@H](CO)[C@H](c3ccc(C#Cc4cccc(F)c4)cc3)[C@H]2C1
  ?	.
O=C(C[C@H]1CC[C@@H](NS(=O)(=O)c2ccc(F)cc2)[C@H](CO)O1)NC1CCC1
  5	6
CO[C@@H]1CC[C@H]2CCN(C)C(=O)CCCN(C)C(=O)c3cccc(C#N)c3OC[C@H]1O2
  14	10
CC(C)CC#Cc1ccc2c(c1)O[C@@H](CN(C)C(=O)Cc1ccncc1)[C@H](C)CN([C@H](C)CO)S2(=O)=O
  ?	.
CC(C)N(C[C@H]1[C@H](c2ccccc2)[C@@H](CO)N1S(C)(=O)=O)C(=O)CN(C)C
  -8	-10
C[C@H](CO)N1C[C@H](C)[C@@H](CN(C)S(=O)(=O)c2ccc(F)cc2)Oc2ccc(NC(=O)c3ccncc3)cc2C1=O
  4	3
C[C@@H]1CCCCO[C@@H](CN(C)S(=O)(=O)c2cn(C)cn2)[C@H](C)CN([C@H](C)CO)C(=O)c2cc(NC(=O)CCC(F)(F)F)ccc2O1
  16	9
C[C@@H]1CN([C@H](C)CO)S(=O)(=O)c2ccc(C#CCC3CCCC3)cc2O[C@@H]1CN(C)C(=O)c1ccccn1
  ?	.

# Source: PubChem BioAssay (Broad Institute)
